FEN1 inh: blocks human flap endonuclease 1; Recombinant FEN1 flap cleavage, fluorescence, 15 min; hit rate 0.35% among 390,000; AID 588795; Potency, µM (highest dose often 114 µM), without a hit: top-dose activity change, negative = inhibition, most hits filed as inhibitors; note: nearly all actives have a fitted effect of over 65% in size
Target sequence (P39748 whole entry, looked up): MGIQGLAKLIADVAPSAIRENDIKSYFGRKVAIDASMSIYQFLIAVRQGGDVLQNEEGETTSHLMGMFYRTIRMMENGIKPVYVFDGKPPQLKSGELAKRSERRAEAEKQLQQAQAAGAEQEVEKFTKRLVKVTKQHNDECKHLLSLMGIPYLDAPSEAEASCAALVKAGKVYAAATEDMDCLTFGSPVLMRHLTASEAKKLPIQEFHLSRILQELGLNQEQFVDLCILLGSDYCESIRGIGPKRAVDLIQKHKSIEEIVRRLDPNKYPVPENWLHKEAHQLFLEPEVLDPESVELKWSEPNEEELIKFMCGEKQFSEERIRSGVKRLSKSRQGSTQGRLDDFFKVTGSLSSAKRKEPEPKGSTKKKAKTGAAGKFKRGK
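In this screen, 50 nM flap DNA substrate was added to 10 nM FEN1 pretreated with compound for 15 min at room temperature; cleavage was followed with reads at 0 and 15 min, and Hill fitting gave concentration–response parameters.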
N370S GC mod: inhibitors or activators of N370S glucocerebrosidase for Gaucher disease. N370S GC spleen homogenate, 4MU-glucoside fluorescence. Potency, µM (highest dose often 59.4 µM), for inactives: at the highest dose activity change, negative = inhibition, most hits filed as inhibitors. hit rate 0.092% among 330,000;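 note: 0% = full enzyme activity and -100% = no enzyme basal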
Numbers without * were called inactive; ? = inconclusive; . = not tested or not shown; & = joins results of further samples. Calls come from the whole dose curve; as a rule, active = well fitted curve in the direction sought with a large enough effect; inconclusive = small, poorly fitted or top-dose-only effect, or another doubt; inactive = no such curve, though single readings can be large; an effect the other way counts as inactive or inconclusive. Unless noted, % is set by controls: 0 for no effect and ±100 for the full control effect; potency is the fitted concentration of half-maximal effect. A portion of the library; most or all hits stand in other tables.

Compound: COc1ccccc1-n1c(CNCC2CCCO2)nc2ccccc2c1=O (configuration not stated)
  FEN1 inh = 0.8%; N370S GC mod = -1.5%
Compound: COP(=O)(OC)OC=C(Cl)Cl
  FEN1 inh = .; N370S GC mod = 8.1%&2.2%
Compound: C[C@H]1O[C@H](O[C@H]2[C@H](O)[C@@H](O)[C@@H](O)[C@H](O)[C@@H]2O)[C@@H](N)C[C@@H]1NC(=N)C(=O)O
  FEN1 inh = .; N370S GC mod = 6.6%
Compound: O=c1[nH]cc(F)c(=O)[nH]1
  FEN1 inh = ?; N370S GC mod = -0.2%&2.3%&-2.9%&-4.9%&0.7%
Compound: O=C1CC2OCC=C3CN4CC[C@]56c7ccccc7N1C5C2[C@H]3C[C@H]46 (some centres not stated)
  FEN1 inh = .; N370S GC mod = 1.2%
Compound: S=P(Nn1cnnc1)(c1ccccc1)c1ccccc1
  FEN1 inh = -0.5%; N370S GC mod = 6.0%
Compound: Oc1c(Br)cc(Br)cc1Br
  FEN1 inh = -5.1%; N370S GC mod = 1.4%
Compound: C[N+]1(C)[C@@H]2CC(OC(=O)[C@H](CO)c3ccccc3)C[C@H]1[C@@H]1O[C@@H]12 (some centres not stated)
  FEN1 inh = -0.2%&11.9%; N370S GC mod = ?
Compound: N#CCP(=S)(c1ccccc1)c1ccccc1
  FEN1 inh = -4.7%; N370S GC mod = 3.9%
Compound: CCOc1ccc2oc(C(=O)NN3C(C)CCCC3C)c(C)c2c1 (configuration not stated)
  FEN1 inh = -2.1%; N370S GC mod = -7.0%

Record cards, from the list above. Screens in order: FEN1 inh	N370S GC mod
CCOc1ccc2oc(C(=O)NN3C(C)CCCC3C)c(C)c2c1 (configuration not stated) is listed as -2.1%	-7.0%
COP(=O)(OC)OC=C(Cl)Cl is listed as .	8.1%&2.2%
C[N+]1(C)[C@@H]2CC(OC(=O)[C@H](CO)c3ccccc3)C[C@H]1[C@@H]1O[C@@H]12 (some centres not stated) is listed as -0.2%&11.9%	?

The list goes on:
Compound: CN(C)c1ccc(NC(=O)CN2C(=O)CN=C(c3ccccc3)c3ccccc32)cc1
  FEN1 inh = 17.3%; N370S GC mod = 6.2%
Compound: c1ccc([C@H]2CNCc3ccccc32)cc1
  FEN1 inh = .; N370S GC mod = -4.7%
Compound: Nc1ccc(Cl)cc1N
  FEN1 inh = .; N370S GC mod = -12.5%
Compound: CC[C@H]1CN2CCc3cc(OC)c(OC)cc3C2C[C@@H]1C[C@H]1NCCc2cc(OC)c(OC)cc21 (some centres not stated)
  FEN1 inh = -0.7%; N370S GC mod = -7.2%
Compound: O=C1C=CC[C@@H]2[C@H]3CCCN4CCC[C@@H](CN12)[C@@H]34
  FEN1 inh = .; N370S GC mod = 6.2%
Compound: Cc1ccc(C[n+]2c(-c3ccc(C)cc3)cc(-c3ccc(C)cc3)cc2-c2ccc(C)cc2)cc1
  FEN1 inh = -19.5%; N370S GC mod = -14.6%
Compound: Cc1ccc(OCC(=O)N2CCN(CC3CC4C=CC3C4)CC2)cc1 (configuration not stated)
  FEN1 inh = -5.5%; N370S GC mod = -18.8%
Compound: O=C(N/N=C/c1c(O)n(CCc2ccc(F)cc2)c(=O)[nH]c1=O)c1ccccc1
  FEN1 inh = 13.4%; N370S GC mod = -12.2%
Compound: O=c1[nH]c(=O)n(CCC2=CCCCC2)c(O)c1C=Nc1cccc(F)c1
  FEN1 inh = -4.3%; N370S GC mod = 5.1%
Compound: CCCCSP1(=S)NCCCO1 (configuration not stated)
  FEN1 inh = -9.7%; N370S GC mod = 1.9%

Molecules from the list above that contain four or more nitrogen atoms:
Compound: S=P(Nn1cnnc1)(c1ccccc1)c1ccccc1
  FEN1 inh = -0.5%; N370S GC mod = 6.0%
Compound: CN(C)c1ccc(NC(=O)CN2C(=O)CN=C(c3ccccc3)c3ccccc32)cc1
  FEN1 inh = 17.3%; N370S GC mod = 6.2%
Compound: O=C(N/N=C/c1c(O)n(CCc2ccc(F)cc2)c(=O)[nH]c1=O)c1ccccc1
  FEN1 inh = 13.4%; N370S GC mod = -12.2%

Sorted by formula weight (ascending): part of the list above.
Compound: c1ccc([C@H]2CNCc3ccccc32)cc1
  FEN1 inh = .; N370S GC mod = -4.7%
Compound: Cc1ccc(OCC(=O)N2CCN(CC3CC4C=CC3C4)CC2)cc1 (configuration not stated)
  FEN1 inh = -5.5%; N370S GC mod = -18.8%
Compound: CN(C)c1ccc(NC(=O)CN2C(=O)CN=C(c3ccccc3)c3ccccc32)cc1
  FEN1 inh = 17.3%; N370S GC mod = 6.2%

(continued)
Compound: C[C@]12CC[C@H](O)CC1=CCC1C2CC[C@@]2(C)C1C[C@@H](O)[C@@H]2O (some centres not stated)
  FEN1 inh = -4.8%; N370S GC mod = .
Compound: CCCOC(=O)c1cc2c(cn1)[nH]c1ccccc12
  FEN1 inh = .; N370S GC mod = 0.4%
Compound: CN1C[C@@H](C(=O)N[C@@]2(C)O[C@]3(O)C4CCCN4C(=O)[C@@H](Cc4ccccc4)N3C2=O)C=C2c3cccc4[nH]cc(c34)C[C@@H]21 (some centres not stated)
  FEN1 inh = .; N370S GC mod = 6.4%
Compound: Nc1ccccc1C(=O)c1ccccc1
  FEN1 inh = 0.0%; N370S GC mod = 2.8%
Compound: COc1cc2c(cc1OC)C13CCN4C=C5CCOC6CC(=O)N2C1C6C5CC43 (configuration not stated)
  FEN1 inh = 4.1%; N370S GC mod = .
Compound: c1ccc(-c2cc(-c3ccccc3)[n+](-c3ccccc3)c(-c3ccccc3)c2)cc1
  FEN1 inh = -3.6%; N370S GC mod = 4.5%
Compound: CCCC(C)(COC(N)=O)COC(=O)NC(C)C (configuration not stated)
  FEN1 inh = ?; N370S GC mod = -14.2%&1.6%&9.4%&-2.5%
Compound: COc1ccc2c(c1OC)C(=O)OC2C1c2cc3c(cc2CCN1C)OCO3 (configuration not stated)
  FEN1 inh = 4.5%; N370S GC mod = ?
Compound: Cc1ccc(N)c(N)c1
  FEN1 inh = 2.0%; N370S GC mod = -7.2%&-4.5%
Compound: CC1CN=C(NCCc2ccccc2)S1 (configuration not stated)
  FEN1 inh = 1.0%; N370S GC mod = 4.9%
Compound: CC1CC(C)CC(C)C(O)C(C#N)=CC=CCC(C2CCCC2C(=O)O)OC(=O)CC(O)C(C)C1 (configuration not stated)
  FEN1 inh = 12.8%; N370S GC mod = .

High-throughput results: PubChem BioAssay, National Center for Advancing Translational Sciences (NCATS)
